Screening data deposited in PubChem BioAssay by National Center for Advancing Translational Sciences (NCATS).
Rango release inh – inhibition of RanGTP-driven Rango-importin beta dissociation | O95149+P62826 | Biochemical FRET Rango-importin beta, RanGTP-induced dissociation | Potency, µM (highest dose often 46.1 µM), without a hit: top-dose activity change, negative = inhibition | 0.071% of 340,000 active; active means falling FRET ratio curve, often poorly fitted, with flat reads before Ran was added; inconclusive means other falling curves, or compound fluorescence or quenching; inactive means flat or rising ratio curve;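 also: potency is read from the fitted curve at half-maximal effect; % of control where 0% means no effect; nearly all actives have a fitted effect of over 45% in size; -100% = wells without RanGTP and RCC1; the record marks most hits as doubtful in a second field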
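Recombinant Rango FRET biosensor (EYFP–snurportin 1 IBB–cerulean CFP10) at 0.1 uM premixed with 0.25 uM importin beta in PBS, 1 mM DTT, 0.02% Tween-20, 0.1% BSA. Compound added 5 min; RanGTP-RCC1 (0.6 uM Ran, 2 mM GTP, 0.2 uM RCC1) then triggers release, read at 45 min.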
miR-21 FLuc – raises the signal of a miR-21 reporter; HeLa miR-21 FLuc reporter, luciferase, 48 h; Potency, µM (top dose mostly 38.3 µM), for the others: at the highest dose reporter change, positive = more light; 340,000 tested, under 10 active; AID 2288; active = well fitted rising curve with a large enough effect; inconclusive = small, poorly fitted or top-dose-only effect; inactive = no such curve, though single readings can be large or run the other way;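 also: % of control where 0% means no effect; miR-21 action dims this reporter so a rising signal means less miR-21 action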
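HeLa miR-21-FLuc reporter line, endogenous miR-21; 2000 cells/well in DMEM/10% FBS; compound titration up to ~40uM final, 48 h, 37 degree Celsius; luciferase detection reagent, 15 min lysis, CCD luminescence.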
GLA inh pH 4.5 – blocks human alpha-galactosidase A at pH 4.5; purified enzyme, 4-MU-alpha-Gal fluorescence, pH 4.5; 230,000 tested, under 10 active; activity change, negative = inhibition, % at 105 µM; AID 1467; P06280; inconclusive = small, poorly fitted or top-dose-only inhibition, or a rising curve; inactive = flat fitted curve, though single readings scatter; no compound was filed as active;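 also: 0% = full activity with enzyme and -100% = basal without enzyme; dose as in the result columns while the protocol names 77 µM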
Rango complex inh – inhibitors of Rango-importin beta complex formation; Q14974; Rango CFP/YFP FRET sensor + importin beta, 45 min; Potency, µM (top dose mostly 92.2 µM), for inactives: top-dose inhibition of complex formation; 0.031% of 340,000 active; AID 540263; active = rising FRET ratio curve, often small or poorly fitted; inconclusive = mostly compound fluorescence or quenching in the first reads; inactive = flat curves in all reads;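 also: potency is read from the fitted curve at half-maximal effect; 0% = DMSO wells and 100% = buffer wells lacking importin beta; nearly all actives have a fitted effect of over 15% in size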
Target sequence (Q14974 whole entry, looked up): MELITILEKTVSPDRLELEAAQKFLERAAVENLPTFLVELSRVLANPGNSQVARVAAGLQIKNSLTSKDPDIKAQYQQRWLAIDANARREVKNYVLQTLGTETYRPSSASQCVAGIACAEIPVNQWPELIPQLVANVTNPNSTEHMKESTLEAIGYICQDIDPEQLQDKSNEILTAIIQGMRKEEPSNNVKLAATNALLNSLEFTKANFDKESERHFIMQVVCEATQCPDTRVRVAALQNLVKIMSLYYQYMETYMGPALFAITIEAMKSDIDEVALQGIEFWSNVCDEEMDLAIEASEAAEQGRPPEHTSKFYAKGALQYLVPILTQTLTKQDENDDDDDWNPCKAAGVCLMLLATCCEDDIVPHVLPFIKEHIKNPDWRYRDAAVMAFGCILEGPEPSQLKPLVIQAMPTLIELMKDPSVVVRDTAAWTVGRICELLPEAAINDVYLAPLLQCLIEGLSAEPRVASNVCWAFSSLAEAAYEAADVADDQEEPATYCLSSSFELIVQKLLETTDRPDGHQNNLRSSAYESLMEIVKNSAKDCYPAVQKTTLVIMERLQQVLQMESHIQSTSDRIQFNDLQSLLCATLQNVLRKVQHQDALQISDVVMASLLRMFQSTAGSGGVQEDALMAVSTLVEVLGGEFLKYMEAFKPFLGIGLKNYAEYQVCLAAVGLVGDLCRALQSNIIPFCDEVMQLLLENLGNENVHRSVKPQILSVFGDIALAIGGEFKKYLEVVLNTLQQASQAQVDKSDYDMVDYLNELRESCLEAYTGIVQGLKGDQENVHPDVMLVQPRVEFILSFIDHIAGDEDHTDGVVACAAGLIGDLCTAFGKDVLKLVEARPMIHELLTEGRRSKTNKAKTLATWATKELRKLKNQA
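Inhibition scored from the CFP 486 nm/YFP 530 nm FRET ratio 45 min after adding 0.125 microM importin beta to 50 nM Rango biosensor preincubated 5 min with compound (room temperature, PBS with DTT, Tween-20, BSA). No-importin wells as positive control.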
Active calls of the source: *; ? = inconclusive; . = not tested or not shown; & = joins results of further samples. These rows are one share of the data, so the mix of outcomes need not match the whole.

molecule | Rango release inh | miR-21 FLuc | GLA inh pH 4.5 | Rango complex inh
Cc1ccc(N(CC(=O)NCc2ccc(F)cc2)S(=O)(=O)c2cccs2)cc1 | -12% | 7% | 1 | -4.5%
CCOC(=O)C1CCN(CCC(=O)Nc2ccc(C)cc2)CC1 | 11% | -6% | 7 | -4.4%
CCn1c(=O)c([N+](=O)[O-])c(N2CCN(Cc3ccc4c(c3)OCO4)CC2)c2ccccc21 | 0% | 2% | -3 | 0.8%
COc1ccc(OC)c2c(N3CC(C)OC(C)C3)cc(C(F)(F)F)nc12 (stereo not given) | 9% | -82% | 6 | ?
Cc1cc(C(=O)N/N=C/c2cccnc2)c2ccccc2n1 | 0% | 15% | . | -2.9%
Cc1cc(NC(=O)COC(=O)C2CCCN2C(=O)c2cccs2)no1 (stereo not given) | -23% | -2% | 6 | -5.2%
Fc1cccc(C2NC(=S)NC3=C2N2CCC3CC2)c1 (stereo not given) | -26% | 7% | 7 | 5.1%
O=C(NNC(=O)c1cccc(S(=O)(=O)N2CCN(c3ccccc3)CC2)c1)c1ccc(Cl)cc1 | 5% | 3% | 0 | -3.6%
CCCOc1ccccc1C(=O)NCCCC(=O)O | 0% | -4% | -4 | -0.2%
COc1cc(C(=O)Nc2ccc3nc(N4CCN(C)CC4)cc(C)c3c2)cc(OC)c1OC | -2% | -16% | . | 1.7%

(list continues)
molecule | Rango release inh | miR-21 FLuc | GLA inh pH 4.5 | Rango complex inh
CC(C)C(NC(=O)C(C)N1C(=O)c2ccccc2C1=O)c1ccccc1 (stereo not given) | 16% | 0% | . | -0.6%
CC1CN(Cc2ccco2)C(=S)NC1=O (stereo not given) | 8% | . | . | -1.4%
Cc1cc(C)c2c(c1)/C(=c1/sc3n(c1=O)CN(c1ccccc1)CN=3)C(=O)N2 | 0% | -6% | 3 | 0.2%
Cc1ccc(C(=O)NC2(C(Cl)Cl)N=C(c3ccccc3)N=C2N)cc1 (stereo not given) | 5% | -4% | -18 | 7.3%
Cc1ccccc1NS(=O)(=O)c1ccc(C(=O)N2CCCCCC2)cc1 | 4% | . | . | 0.2%
Nn1c(SCC(=O)N2CCCc3ccccc32)nncc1=O | 2% | -1% | -3 | -3.2%
O=C(CCN1C(=O)/C(=C\c2ccccc2)SC1=S)NNC(=O)c1ccccc1O | -8% | 8% | . | -4.1%
O=C(NCc1ccc2c(c1)OCO2)c1cc2c(s1)CS(=O)(=O)C2 | -4% | -8% | -11 | -0.2%
CSc1ccc(S(=O)(=O)NC(C)c2ccccc2)cc1 (stereo not given) | 6% | -2% | 0 | 4.3%
Cc1ccc(C(=O)NCCCN2CCN(CCCNC(=O)c3ccc(C)cc3)CC2)cc1 | 13% | . | . | -3.3%

Five entries from above, sorted by their value in GLA inh pH 4.5, high to low.
molecule | Rango release inh | miR-21 FLuc | GLA inh pH 4.5 | Rango complex inh
Cc1cc(C)c2c(c1)/C(=c1/sc3n(c1=O)CN(c1ccccc1)CN=3)C(=O)N2 | 0% | -6% | 3 | 0.2%
CSc1ccc(S(=O)(=O)NC(C)c2ccccc2)cc1 (stereo not given) | 6% | -2% | 0 | 4.3%
Nn1c(SCC(=O)N2CCCc3ccccc32)nncc1=O | 2% | -1% | -3 | -3.2%
O=C(NCc1ccc2c(c1)OCO2)c1cc2c(s1)CS(=O)(=O)C2 | -4% | -8% | -11 | -0.2%
Cc1ccc(C(=O)NC2(C(Cl)Cl)N=C(c3ccccc3)N=C2N)cc1 (stereo not given) | 5% | -4% | -18 | 7.3%

Next section:
molecule | Rango release inh | miR-21 FLuc | GLA inh pH 4.5 | Rango complex inh
Cc1cc(NC(=O)c2ccc(Cn3nc(C)c(Br)c3C)o2)no1 | -8% | -5% | -2 | 1.2%
O=C(O)CCCNC(=O)Cc1ccccc1 | -10% | 1% | -3 | 1.1%
CCOc1ccccc1/C=C/c1nc2ccccc2[nH]c1=O | ? | 7% | . | ?
O=C(O)c1ccc(/C=N/N2CCN(c3ccccc3)CC2)cc1 | 2% | -37% | . | -0.2%
O=S(=O)(c1ccccc1F)N1CCN(Cc2nc3ccccc3[nH]2)CC1 | -10% | -9% | 3 | 2.1%
O=C(Cc1ccc(NC(=O)C2CCN(C(=O)c3ccccc3)CC2)cc1)Nc1cccc(C(=O)N2CCCC2)c1 | -13% | . | . | -2.0%
C=CCc1ccc2oc(C(=O)OCC)cc(=O)c2c1O | ? | 0% | 0 | 1.6%
CCOC(=O)Nc1cc(OCC)c(NC(=O)C2CC2)cc1OCC | -13% | -2% | 1 | ?
COc1ccc(-c2nonc2NC(=O)c2oc3ccc(F)cc3c2C)cc1OC | 7% | -3% | . | 2.3%
CCOc1ccc(Br)cc1S(=O)(=O)Nc1ccc(Cl)c(S(=O)(=O)N(CC)c2ccccc2)c1 | 17% | -2% | -7 | -1.8%

Another view of 2 compounds above.
Rango release inh	miR-21 FLuc	GLA inh pH 4.5	Rango complex inh	molecule
?	0%	0	1.6%	C=CCc1ccc2oc(C(=O)OCC)cc(=O)c2c1O
-13%	-2%	1	?	CCOC(=O)Nc1cc(OCC)c(NC(=O)C2CC2)cc1OCC

Later entries.
SMILES	Rango release inh	miR-21 FLuc	GLA inh pH 4.5	Rango complex inh
O=C(c1ccccc1)c1ccc(N2CCOCC2)c(F)c1	2%	-45%	0	-2.6%
Cc1ccc(Nc2ccc(N3CCN(c4ccc([N+](=O)[O-])cc4)CC3)nn2)cc1	-1%	1%	-13	1.1%
CC(/C=C/c1ccco1)=N/NC(=O)OC(C)(C)C	-1%	-54%	9	?
C=CCc1c(Cl)nc(C)nc1NCc1ccccc1	-9%	1%	.	?
Cc1ccc(F)cc1NC(=O)CSc1n[nH]c(N)n1	2%	.	.	0.7%
Cc1cccc(C(=O)OCC(=O)Nc2c(C)n(C)n(-c3ccccc3)c2=O)c1O	10%	.	.	4.6%
N#Cc1ccc(C23CC4(C2)[C@H](CN(Cc2ccc(-c5ccccc5)cc2)[C@@H]4c2ccccc2)C3c2ccccc2)cc1 (stereo not given in full)	-9%	-6%	-7&2	-0.4%
CC(=O)c1cccc(OCC(O)CNCC2CCCCC2)c1 (stereo not given)	-6%	-5%	.	0.7%
CCOCCCNC(=S)N1CCN(c2nc(-c3ccc(F)cc3)cs2)CC1	-15%	21%	.	-3.0%
COc1ccc(S(=O)(=O)Nc2ccccc2-c2nnn(CC(=O)Nc3ccccc3OC)n2)cc1	32%	29%	-1	-0.5%
CCN1C(=O)[C@H]2[C@@H](c3ccc(-c4ccc(Cl)c(Cl)c4)c(OC)c3)N3CCCC[C@@]3(C(=O)OC)[C@H]2C1=O	-3%	.	.	-2.0%
O=S(=O)(Nc1cccc(S(=O)(=O)N2CCCC2)c1)c1ccc(Cl)s1	10%	.	.	2.8%
COc1cccc(NC(=O)NC2CC(=O)N(c3ccc4c(c3)OCCO4)C2)c1 (stereo not given)	-9%	.	.	-0.2%
CC(C)C(OC(=O)c1cccs1)C(=O)NCCc1ccccc1 (stereo not given)	-3%	-9%	.	-1.5%
CC(=O)Nc1ccc(S(=O)(=O)NCC2CCC(C(=O)N3CCCCCC3)CC2)cc1 (stereo not given)	8%	1%	0	-1.8%
Cc1ccc(-c2noc(CN3CCN(C(c4ccccc4)c4ccccc4)CC3)n2)cc1	10%	-1%	1	?
CC(C)c1ccc(-n2cccc2/C=C2/C(=N)N3C=CSC3=NC2=O)cc1	?	-2%	-16	?
O=C(CSc1nnc(-c2ccco2)o1)c1ccccc1Cl	0%	-42%	5	-0.6%
O=C(O)C1C2C=CC(O2)C1C(=O)NC1CCCc2ccccc21 (stereo not given)	2%	0%	2	-2.3%
CCSc1nnc2ccc(-c3ccco3)nn12	3%	1%	6	2.1%
N#CC12C(N)=NC3(OCCO3)C1(C#N)C1=C(CCC1)NC2c1ccccc1 (stereo not given)	?	1%	2	?
CCOc1ccc(N(CC(=O)NCCc2ccccc2)C(=O)c2csnn2)cc1	-1%	-31%	.	-0.3%
CCN(CC)CCNC(=S)Nc1ccc2nc(N3CCN(CC)CC3)cc(C)c2c1	19%	-26%	.	-4.0%
COC(=O)/C=C/c1cc(F)ccc1S(=O)(=O)NC(C)(C)C	-9%	.	.	-2.7%
C[n+]1ccn(CC(=O)c2cccs2)c1	3%	-11%	.	1.4%
CCOC(=O)C1(Cc2cccc(OC)c2)CCN(Cc2cccc3cnccc23)CC1	-14%	10%	-14	?
CCN1CCN(S(=O)(=O)c2cc(C)c(OC)cc2C)CC1	-6%	-9%	4	1.4%
CN(Cc1cc2ccccc2[nH]c1=O)S(C)(=O)=O	2%	-2%	-1	0.2%
Cc1ccc(-c2csc3nc(SCC(=O)N(C)C)n(Cc4ccccc4)c(=O)c23)cc1	-1%	2%	-11	0.9%
NC(=O)C1(C(=O)O)OC1(c1ccc(Cl)cc1)c1ccccc1Cl (stereo not given)	-2%	.	.	1.3%

Carrying on:
SMILES	Rango release inh	miR-21 FLuc	GLA inh pH 4.5	Rango complex inh
COC(=O)Nc1nnc(-c2ccccc2OC)s1	18%	-55%	3	0.5%
Cc1[nH]n(-c2ccccc2)c(=O)c1C=NC1CCCCCC1	-2%	-52%	-12	-0.1%
CC(=O)Nc1ccc(N2CCOCC2)c(C(=O)Nc2cccc(C)c2)c1	21%	-5%	-4	-0.5%
COC(=O)CNC(=O)C1CCN(S(=O)(=O)c2cccc3nsnc23)CC1	-22%	0%&0%	.	-1.2%
COc1cccc(CN(C)C(=O)CC23CC4CC(CC(C4)C2)C3)c1OC	-7%	10%	.	-1.1%
CC(C)NC(=O)c1ccc2c(=O)n(CC3CCCO3)c(=S)[nH]c2c1 (stereo not given)	15%	0%	0	-2.7%
O=C(CN1CCN(c2ccccn2)CC1)Nc1ccc2ccccc2c1	9%	-50%	-4	0.4%
CC(C)CC(=O)Nc1ncnc2c1C(=O)CC(C)(C)C2	15%	-35%	-4	-0.2%
O=C1N2CCSC2=NC1(Nc1ccccn1)C(F)(F)F (stereo not given)	14%	-7%	-1	-1.8%
O=C1c2ccccc2C(=O)C12OC(c1ccccc1)C1(C(=O)c3ccccc3C1=O)C2c1cccc([N+](=O)[O-])c1 (stereo not given)	.	-36%	3	.
O=C(CNC(=O)c1ccc(Br)o1)Nc1cccc(S(=O)(=O)N2CCCC2)c1	18%	.	.	1.9%
O=C(Nc1cccc(Cl)c1)OCc1cncs1	4%	-40%	4	2.6%
CCN(CC(=O)Nc1ccc(NC(C)=O)cc1)C(=O)C1CCN(C(=O)c2ccccc2C)CC1	-12%	.	.	1.0%
NC1=NC(c2cn(-c3ccccc3)nc2-c2cccs2)n2c(nc3ccccc32)N1 (stereo not given)	12%	-10%	-8	2.2%
O=C(Cn1cnc2ccccc21)NCCCN1CCOCC1	4%	-1%	7	1.8%
O=C(NCCC(=O)N1CCN(S(=O)(=O)c2ccc(F)cc2)CC1)Nc1ccccc1	1%	.	.	-3.2%
Oc1ccc(C(=Nc2ccccc2)c2ccccc2)c(O)c1	6%	.	.	3.8%
COc1ccc2c(c1)OC[C@H]1[C@H]2N2C(=O)CN(Cc3ccccc3)C(=O)[C@@]2(C)[C@H]1c1ccccc1	-3%	.	.	8.0%
CCN(CC)c1ccc(C(=O)N/N=C(\C)c2cccnc2)cc1	8%	4%	5	0.6%
NNC(=O)c1nc[nH]c1C(=O)Nc1ccccc1	-3%	6%	.	0.5%
COc1cc(OC)nc(Oc2ccc(N)c(C)c2)n1	5%	-4%	.	-2.0%
CC(C)(C)OC(=O)N1CCC2(CC1)Oc1ccc(Cl)cc1C(=O)C21CC(c2ccc(Cl)cc2)=NO1 (stereo not given)	-2%	.	.	-4.2%
CCn1cc(C(=O)N2CCn3c(nc4ccccc43)C2)c(=O)c2ccc(C)nc21	10%	2%	7	4.6%
CCC(CC)NC(=O)COn1nnc2ccc(S(=O)(=O)N3CCOCC3)cc21	-6%	.	.	-0.8%
O=C(CCc1nnc(-c2ccc(-c3ccccc3)cc2)o1)NCCc1ccccn1	0%	21%	0	-1.0%
